Compound activity from PubChem.
VACV mCherry inh: vaccinia inhibition (mCherry reporter); Potency, µM (highest dose often 36.5 µM), for inactives: top-dose activity change, negative = inhibition, actives largely listed as inhibitors; hit rate 0.63% among 310,000; AID 720579; Vaccinia virus mCherry reporter infection, fluorescence; about a quarter of the inactives have no number; active = well fitted inhibition curve with a large enough effect; inconclusive = small, poorly fitted or top-dose-only effect; inactive = no such curve, though single readings can be large or run the other way; tested in A549 cells; further: nearly all actives have a fitted effect of over 35% in size; inactives centre near -10
Vaccinia Venus: vaccinia inhibition (Venus reporter); Vaccinia virus Venus reporter expression, fluorescence; Potency, µM (doses to about 36.5 µM), for the others: at the top dose activity change, negative = inhibition, usual class: inhibitors; hit rate 0.46% among 330,000; AID 720580; active means well fitted inhibition curve with a large enough effect; inconclusive means small, poorly fitted or top-dose-only effect; inactive means no such curve, though single readings can be large or run the other way; tested in A549 cells; further: nearly all actives have a fitted effect of over 30% in size; inactives centre near -10
* hit, by the source's call; i = inactive; u = inconclusive; x = no result given; [ ] = remark or other dose. On the % scale 0 is the no-effect control and ±100 the full control effect; potency means the concentration at half of the fitted maximal effect.

Order of values: VACV mCherry inh	Vaccinia Venus
- Cn1c(SCC(=O)Nc2cccc(F)c2)nnc1-c1cc2ccccc2o1
→ x	-8%
- C=CCC[C@H](Cc1ccc(F)cc1)C(=O)OC[C@H](C)NC(=O)[C@H](CC=C)CC(=O)N(CCO)Cc1ccccc1
→ -18%	u
- CCC(=O)Nc1ccc(C(=O)NNC(=O)COc2cc(C)ccc2C)cc1
→ -11%	-9%
- Cc1cc(Br)ccc1SCC(=O)OCC(=O)NC(C)c1ccccc1 (configuration not stated)
→ -13%	-6%
- Cc1ccc(NC(=O)[C@@H]2CCCN2S(=O)(=O)c2ccccc2F)cc1S(=O)(=O)N1CCOCC1
→ -27%	-24%
- Cc1c(C(=O)OCC2CCCCC2)[nH]c2c1C(=O)CC(c1ccc(F)cc1)C2 (configuration not stated)
→ i	-14%
- COc1cc(CNCc2ccccc2)c(Br)cc1OC1CCCC1
→ -19%	-15%
- C=C1C[C@@H]2[C@H](CC[C@]3(C)C(=O)CC[C@@H]23)[C@@]2(C)C=CC(=O)C=C12
→ 14%	17%
- COc1ccc(OC)c(S(=O)(=O)NCCC(C)C)c1
→ 0%	4%
- Cc1cccc(NC(=O)C(CCC(N)=O)NC(=O)OCc2ccccc2)c1 (configuration not stated)
→ 14%	0%
- CC(=O)C1C(=O)C=C(c2cccs2)CC1c1ccccc1 (configuration not stated)
→ -20%	-7%
- C/C(=N/NS(=O)(=O)c1cccc([N+](=O)[O-])c1)c1ccc2c(c1)OCO2
→ i	-4%
- CC(C)(C)NC(=O)C(c1ccncc1)N(C(=O)CNC(=O)c1ccco1)c1ccc(F)cc1 (configuration not stated)
→ -8%	0%
- CCOC(=O)c1ccc2nc(C(F)(F)F)[nH]c(=O)c2c1
→ -15%	-14%
- COC(=O)[C@]1(C)CCC[C@@]2(C)C3CC[C@]4(OC(C)=O)C[C@@]3(CCC21)CC4=NO (some centres not stated)
→ -2%	-17%

Single records (already shown):
Cc1c(C(=O)OCC2CCCCC2)[nH]c2c1C(=O)CC(c1ccc(F)cc1)C2 (configuration not stated) reads VACV mCherry inh = i; Vaccinia Venus = -14%
Cc1ccc(NC(=O)[C@@H]2CCCN2S(=O)(=O)c2ccccc2F)cc1S(=O)(=O)N1CCOCC1 reads VACV mCherry inh = -27%; Vaccinia Venus = -24%

Part of the list above, in markdown.
| molecule | VACV mCherry inh | Vaccinia Venus |
| --- | --- | --- |
| Cn1c(SCC(=O)Nc2cccc(F)c2)nnc1-c1cc2ccccc2o1 | x | -8% |
| C=CCC[C@H](Cc1ccc(F)cc1)C(=O)OC[C@H](C)NC(=O)[C@H](CC=C)CC(=O)N(CCO)Cc1ccccc1 | -18% | u |

New compounds follow.
Order of values: VACV mCherry inh	Vaccinia Venus
- CN=Cc1sc2ccccc2c1O
→ -10%	0%
- CN1CC[C@@]2([C@@]34CCN(C)C3Nc3ccccc34)c3ccccc3NC12 (some centres not stated)
→ -6%	-6%
- CSc1snnc1-c1ccccc1
→ -14%	-6%
- COc1ccc(C(CC(=O)Nc2cc([N+](=O)[O-])ccc2OC)c2ccccc2)cc1 (configuration not stated)
→ -8%	-9%
- Cc1cccc(NC(=O)c2cc[n+]([O-])cc2)c1C
→ i	12%
- C/C(=N/OCC(=O)Nc1ccc(C)cc1C)c1cccs1
→ x	-22%
- CC(C)(C)NC(=O)C(c1ccc(OCC(N)=O)cc1)N(C(=O)c1cccnc1)C1CC1 (configuration not stated)
→ -12%	-7%
- Cn1c(N)c(C(=O)COC(=O)/C=C/c2ccccc2F)c(=O)n(C)c1=O
→ -8%	-20%
- COc1ccccc1OCc1ccc(C(=O)OCC2CCCO2)o1 (configuration not stated)
→ x	-2%
- COC(=O)Cc1ccc(N(Cc2ccccc2F)S(=O)(=O)c2ccc(C)cc2)cc1
→ i	-9%
- Cc1cc(NC(=O)COC(=O)C2CC(=O)N(c3ccccc3)C2)no1 (configuration not stated)
→ -9%	-6%
- CCOC(=O)CSC(=S)NC(=O)c1ccc(OC)cc1
→ i	-18%
- Cc1ccc(CNC(=O)CN(CCc2ccccc2)S(C)(=O)=O)cc1
→ -14%	-10%
- NC(=O)C1CCN(c2ccc(C(F)(F)F)cc2[N+](=O)[O-])CC1
→ -5%	-11%
- CCOC(=O)c1c(NC(=O)C(C)S(=O)(=O)c2cn(CC)c3ccccc23)sc2c1CCCC2 (configuration not stated)
→ i	u
- CC(=O)Nc1ccc(N=c2cc([N+](=O)[O-])cc(Cl)n2O)cc1
→ 8.9µM*	u
- CCOC(=O)C1CCCN(S(=O)(=O)c2c(C)noc2C)C1 (configuration not stated)
→ -16%	2%
- CCn1cc(C(=O)N2CCN(c3cccc(Cl)c3)CC2)c(=O)c2cc(S(=O)(=O)N3CCOCC3)ccc21
→ -9%	-8%
- COCC1CCN(C(=O)C2CCC(=O)N(C3CCCCCC3)C2)CC1 (configuration not stated)
→ i	-12%
- COc1ccccc1NC(=S)NCc1ccc2c(c1)cc(C)n2C
→ i	-8%
- CCOC(=O)c1cnc2c(cnn2C)c1Oc1ccc(OC)cc1
→ -6%	7%
- CN1C2=CC=CC=CC2=[N+](C)C12C=CC(=[N+]([O-])[O-])C=C2[N+](=O)[O-] (configuration not stated)
→ -3%	-14%
- CCOc1ccc(S(=O)(=O)N2CCC(C(=O)N3CCN(Cc4ccccc4)CC3)CC2)cc1
→ -24%	u
- N#CC1=C(S)N(c2ccc(F)cc2)C(c2ccco2)NC1=O (configuration not stated)
→ i	10%
- CCCN1CCCc2cc(CN(CCCN3CCOCC3)C(=O)Nc3ccc(Cl)c(Cl)c3)ccc21
→ -20%	-11%
- COc1cc(C)ccc1OCCn1c(-c2ccc(Cl)cc2)nc2ccccc2c1=O
→ -10%[7.34 µM]	-8%[7.34 µM]
- O=C(NC1CC1)c1ccc(CSCc2ccc(Cl)cc2)o1
→ -13%	-24%
- COc1ccccc1OCC(=O)N/N=C/c1cccc2cccnc12
→ u	-30%
- C[n+]1c(-c2ccccc2)cc(-c2ccc(O)cc2)cc1-c1ccccc1
→ -14%	23%
- O=C(COc1coc(CN2CCc3ccccc3C2)cc1=O)N1CCOCC1
→ -10%	-13%
- COc1cc(C)ccc1OCCOc1cc(C)ccc1Cl
→ -24%	-14%
- Cn1cccc1C(=O)NC(=O)CSc1cccc[n+]1[O-]
→ 0%	-1%
- COc1ccc(-c2c(C#Cc3ccsc3)c3cc(-c4ccc5c(c4)OCO5)ccc3n2C)cc1
→ i	-1%
- CCCSc1ncc(Cl)c(C(=O)Nc2c(C(=O)Nc3ccc(OC)cc3)oc3ccccc23)n1
→ -12%	-8%
- COc1ccc(NC(=O)CCS(=O)(=O)c2cc3c4c(c2)CCN4C(=O)CC3)cc1OC
→ -5%	-6%
- CCOC(=O)CN1N=C(c2ccc(C)cc2)CCC1=O
→ i	-13%
- CC(=NCC1CCCO1)c1c(O)n(Cc2ccccc2)c(=O)[nH]c1=O (configuration not stated)
→ i	-11%
- CCn1nnnc1SCC(=O)Nc1ccc(N(C)C)cc1
→ u	-4%
- CC(C)N1CCC(=O)NC1=O
→ -21%	-10%
- NC(=O)Cn1c(=O)n(-c2ccc(F)c(Cl)c2)c(=O)c2sc3ccccc3c21
→ -6%	-2%
- O=C(Nc1nc2ccccc2[nH]1)c1ccc([N+](=O)[O-])cc1
→ -14%	-11%
- COCc1cc(=O)[nH]c(SCC(=O)c2ccccc2)n1
→ i	-13%
- COc1cccc(CC(=O)OCC(=O)NC2CCCCCC2)c1
→ 0%	-9%
- COc1ccc(F)cc1-c1cc(C(=O)Nc2ccc(NC(C)=O)cc2)[nH]n1
→ i	2%
- COc1ccc(CCNC(=O)c2cnc3sc(N4CCCCCC4)nn3c2=O)cc1OC
→ -13%	-16%
- Cc1cccc(Nc2nc(-c3ccccc3)c3cc(C)ccc3n2)c1
→ -12%	-6%
- CCOc1ccc(NC(=O)c2sc(-n3nc(C)c(Cc4ccc(Cl)cc4)c3C)nc2C)cc1
→ -3%	-21%
- Cc1nn(C)c(Cl)c1CN1CCCC(C(=O)Nc2ccc(-c3cscn3)cc2)C1 (configuration not stated)
→ -20%	u
- COCC1CCN(C(=O)c2ccc3nc(Cc4cccc(Cl)c4)oc3c2)CC1
→ -13%	-21%
- NC(Cc1ccc(Cl)cc1)c1csc(Nc2cnccn2)n1 (configuration not stated)
→ u	u
- COc1ccc(NC(=O)c2sc3nc(N4CCOCC4)c4c(c3c2N)CC(C(C)C)OC4)c(OC)c1 (configuration not stated)
→ 7%[7.34 µM]	0%[7.34 µM]
- COc1ccc(C(OCC(O)CNC(C)c2ccccc2)c2ccc(OC)cc2)cc1 (configuration not stated)
→ u	-27%
- COc1ccc(NC(=O)N2C[C@H]3CON(C)[C@H]3C[C@H]2c2ccc(N3CCCCC3)cc2)cc1
→ i	1%
- CC(C)Cc1[nH]c(=O)c(C#N)c2c1CCCC2
→ i	-8%
- COc1ccc(CNC(=O)C(c2ccc(O)cc2)N(Cc2ccco2)C(=O)c2snc(C(N)=O)c2N)cc1 (configuration not stated)
→ -14%	1%
- COc1ccc(CN2CCNC(=O)C2CC(=O)N2CCCO2)c(OC)c1 (configuration not stated)
→ i	-1%
- CCCCNC(=O)C(NC(=O)c1cccs1)C(=O)c1ccccc1 (configuration not stated)
→ -16%	-11%
- COc1ccc2cc(CO)n(C)c2c1
→ -5%	-12%
- C=CCNc1nc(N)c([N+](=O)[O-])c(Nc2cccc(Cl)c2)n1
→ -6%	-18%
- Cc1cc(C)nc(SCC(=O)N/N=C/c2ccc3c(c2)OCO3)n1
→ i	-1%

Following part.
Order of values: VACV mCherry inh	Vaccinia Venus
- CCc1ccc(CNC(=O)c2cnc3sc(N4CCCCCC4)nn3c2=O)cc1
→ -8%	-7%
- O=C(CSc1cn(CCNC(=O)c2ccccc2F)c2ccccc12)Nc1ccc(F)cc1
→ -13%	-5%
- COc1ccc(Cc2nnc(NC(=O)C3CC(=O)N(c4ccccc4C)C3)s2)cc1OC (configuration not stated)
→ -7%	-14%
- Cc1ccc(NC(=O)CN(C)CC(=O)Nc2ccc(N3CCOCC3)cc2)cc1F
→ -11%	-16%
- CCC(C#CCN1CCCCC1)(CC)OCCC#N
→ x	-19%
- O=C(NCc1cc(Cl)cc(Cl)c1)c1ccc2nc([C@@H]3O[C@H](CO)[C@H](O)[C@H](O)[C@H]3O)[nH]c2c1
→ 1%	-1%
- CN1CCN(CCC(=O)N/N=C/c2ccccc2F)CC1
→ -2%	-6%
- COc1ccc(NC(=O)C(c2cc3c(cc2[N+](=O)[O-])OCO3)N(C)c2ccccc2)cc1 (configuration not stated)
→ -18%	-7%
- Cc1cc(/C=C2\SC(=Nc3ccc(N4CCOCC4)cc3)N(C)C2=O)c(C)n1-c1cccnc1
→ -12%	-15%
- C[C@H](NC(=O)c1cc2cc(Cl)ccc2n1C)C(=O)N1CCC(C(=O)O)CC1
→ i	-9%
- Cc1nn(C(C)(C)C)c(NC(=O)c2ccc(Cl)cc2)c1Br
→ -9%	-6%
- Cn1c(=O)c2nc(SCC(=O)Nc3ccc(OC(F)(F)F)cc3)n(C)c2n(C)c1=O
→ -17%	-17%
- O=C(CSc1ccc(Cl)cc1)Nc1ccc(-c2nc3ccccc3[nH]2)cc1
→ -11%	u
- CC1CCN(S(=O)(=O)c2nnc(NC(=O)c3cccc(Br)c3)s2)CC1
→ -17%	-16%
- Cc1cnc(C(=O)Nc2ccc(F)c(F)c2)cn1
→ -19%	-19%
- CC1CC(C)(C)NC(C)c2ccccc21 (configuration not stated)
→ x	-9%
- Cc1ccccc1S(=O)(=O)NC(=O)C1(C)CCN1C(=O)Cc1ccc(C(C)(C)C)cc1 (configuration not stated)
→ -15%	-7%
- CCOC(=O)C(NC(C)=O)C(OC(C)=O)c1cccc([N+](=O)[O-])c1 (configuration not stated)
→ -6%	3%
- C=CCNc1ncnc2c1cnn2-c1ccc(Cl)cc1
→ 9%	-7%
- CN1CCN(C(=O)/C(=C/c2cccc([N+](=O)[O-])c2)NC(=O)c2ccccc2)CC1
→ -12%	4%
- Cn1nccc1C(=O)Nc1ccc(OC(=O)c2ccnn2C)cc1
→ -6%	-15%
- CCOC(=O)c1c(C)n(-c2ccc(C)cc2)c2ccc(OCC(O)CN3CCN(C)CC3)cc12 (configuration not stated)
→ -16%	u
- COc1ccc(NC(=O)C(=O)NCc2ccco2)cc1
→ -3%	-4%
- O=C(Oc1ccc2c(c1)O/C(=C\c1ccncc1)C2=O)c1cccs1
→ -2%	-10%
- O=C(CCNC(=O)c1ccc(Br)cc1)Nc1ccccc1N1CCOCC1
→ -9%	-13%
- Cn1cccc1/C=N/N1CCN(Cc2ccccc2Cl)CC1
→ -16%	-24%
- CCCc1nnc(NC(=O)c2cc(=O)c3cc(C)c(C)cc3o2)s1
→ -3%	-9%
- COCCCNC(=O)c1c(NC(=O)c2ccco2)n(Cc2ccccc2)c2nc3ccccc3nc12
→ x	4%
- COc1ccccc1NC(=O)COC(=O)c1cc(C)oc1C
→ i	-10%
- CCN1CCN(CC(=O)N2N=C(c3cccs3)CC2c2ccc(F)cc2)C(=O)C1=O (configuration not stated)
→ i	-6%
- CCc1ccc(NCc2cc3c(C)nn(-c4ccccc4)c3[nH]c2=O)cc1
→ -19%	-30%
- COc1ccc(CNS(=O)(=O)c2c(C(=O)N3CCCCC3)c(C)n(C)c2C)cc1
→ -18%	1%
- Cc1ccccc1NC(=O)CN1C(=O)C2(SCC(=O)N2c2ccc(F)cc2)c2ccccc21 (configuration not stated)
→ 0%	4%
- O=C(CCNC(=O)c1ccc([N+](=O)[O-])cc1)N/N=C/c1ccc(F)cc1
→ u	-8%
